Yeast UUG start – modulators of start codon recognition fidelity in yeast | S. cerevisiae UUG-firefly luciferase reporter, luminescence/redox ratio | activity score, % at 18.7 µM | 0.13% of 350,000 active | AID 602363;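 active = replicate mean at a twofold rise or more, about +100% in these data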;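 note: firefly luciferase made from a UUG start codon reports start codon fidelity; reporter light over untreated wells divided by growth signal over untreated wells; some hits fall short of that in this replicate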
eIF4H inh – inhibitors of RNA binding by human eIF4H; Q15056; eIF4H fluorescence polarization binding assay; inhibition, % at 35 µM; 0.94% of 290,000 active; AID 2012;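 active = 50% or more with normal probe brightness, or confirmed in later tests; inconclusive = above 50% with abnormal brightness, or retests that disagree; inactive = below 50% or failed in later tests; about a fifth of its hits are not listed in these tables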;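 note: calls also rest on retests at 20 µM and on dose response follow-up; 0% = protein and probe with vehicle and 100% = probe without protein; strong numbers were not always called active; many hits fall short of the cut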
CSC inhib – cancer stem cell inhibition; cancer stem cell-like cells viability, luminescence; inhibition, % at 7.5 µM; 1.1% of 300,000 active;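 active = mean at 75% or more and at least half the replicates too; inconclusive = mean and replicates disagree; tested in HMLE shEcad cells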;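 note: 0% = median of negative and 100% = median of positive control wells; the first replicate is given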
PABP FP inh – PABP-poly(A) binding inhibition; PABP-poly(A) RNA binding, fluorescence polarization; inhibition, % at 35 µM; 1% of 290,000 active; AID 2014;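 active = 50% or more with normal probe brightness, or confirmed in later tests; inconclusive = above 50% with abnormal brightness, or retests that disagree; inactive = below 50% or failed in later tests; about a fifth of its hits are not listed in these tables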;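 note: calls also rest on retests at 20 µM and on dose response follow-up; controls were probe without protein and protein plus probe with vehicle; some compounds called inactive have numbers as strong as hits; many hits fall short of the cut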
Target sequence (P11940 whole entry, looked up): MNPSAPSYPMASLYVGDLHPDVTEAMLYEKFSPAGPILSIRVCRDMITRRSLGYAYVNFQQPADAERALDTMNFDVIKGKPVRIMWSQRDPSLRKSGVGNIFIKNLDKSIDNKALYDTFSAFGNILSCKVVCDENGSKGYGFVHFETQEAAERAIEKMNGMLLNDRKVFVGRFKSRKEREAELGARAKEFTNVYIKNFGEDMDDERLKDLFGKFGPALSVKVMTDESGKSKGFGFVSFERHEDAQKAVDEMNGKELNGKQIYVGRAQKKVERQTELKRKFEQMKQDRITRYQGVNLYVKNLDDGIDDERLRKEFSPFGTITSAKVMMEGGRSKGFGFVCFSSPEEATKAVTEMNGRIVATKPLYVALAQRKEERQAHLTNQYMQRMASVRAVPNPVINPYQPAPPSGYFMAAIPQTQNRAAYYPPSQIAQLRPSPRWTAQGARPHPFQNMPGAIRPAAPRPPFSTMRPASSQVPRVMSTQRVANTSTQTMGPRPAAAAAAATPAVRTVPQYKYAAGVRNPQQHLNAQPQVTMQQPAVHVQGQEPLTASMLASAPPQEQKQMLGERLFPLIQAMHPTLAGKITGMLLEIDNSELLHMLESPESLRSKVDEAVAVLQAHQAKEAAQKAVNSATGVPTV
Env fusion inh – HIV envelope-mediated fusion inhibition; 1.1% of 360,000 active; HeLa-JRFL Env/CEM21 cell fusion, luciferase; inhibition, % at 12.3 µM;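 active = mean replicate inhibition score of at least 50 and every replicate individually at or above 50; inconclusive = only one of the two criteria met; inactive = mean below 50 and not all replicates reaching 50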;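 note: 0% = plate neutral controls and 100% = maraviroc near 300 nM; one replicate is shown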
Rce1 inhib – yeast Ras-converting enzyme inhibition | Q03530 | yeast membranes, quenched prenylated peptide cleavage fluorescence | calls only | 0.27% of 290,000 active | AID 2563;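 active = fall in fluorescence gain of 50% or more versus controls, with final raw signal at or below 3038400; inconclusive = same 50% fall but final raw signal above 3038400; inactive = fall in fluorescence gain under 50%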;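 note: plate controls were neutral control wells for no effect and wells lacking membranes for full effect; tested at 10 µM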
Target sequence (Q03530 whole entry, looked up): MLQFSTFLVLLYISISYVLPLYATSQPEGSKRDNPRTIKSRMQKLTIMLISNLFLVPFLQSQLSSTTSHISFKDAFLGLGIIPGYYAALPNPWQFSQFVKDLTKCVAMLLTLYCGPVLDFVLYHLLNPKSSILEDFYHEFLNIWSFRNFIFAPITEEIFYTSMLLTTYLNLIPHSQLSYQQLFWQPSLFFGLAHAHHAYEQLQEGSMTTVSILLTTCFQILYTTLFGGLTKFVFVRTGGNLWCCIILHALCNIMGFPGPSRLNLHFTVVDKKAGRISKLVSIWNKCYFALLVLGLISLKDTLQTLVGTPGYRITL
MT1-MMP act inh – blocks activation of human MT1-MMP; AID 651647; GFP/RFP ratio change, % at 20 µM; 0.061% of 360,000 active; HT1080 RFP-PRO-GFP cells, GFP/RFP ratio fluorescence, overnight; percent of plate control window, DMSO zero; P50281;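 active = GFP/RFP ratio change of at least 30% with cell ATP level not reduced by more than half and red fluorescence within 50% of control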; note: strong numbers were not always called active
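Material: RFP-PRO-GFP reporter HT1080 cells. Dosing: single-point 20 µM compound, 1% DMSO. Controls: DMSO and RFP-L50D-GFP cell wells. Timing: cells overnight before dosing, compound overnight, 37 °C, 5% CO2. Measure: GFP/RFP fluorescence ratio.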
MT1-MMP act inh RFP – recorded beside MT1-MMP act inh, whose call it bears; RFP signal change, %; measured here: RFP expression control read;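 0 = vehicle wells; hits needed this value within 50% of zero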
* hit, by the source's call; i = inactive; u = inconclusive; x = no result given; & = joins results of further samples. This is a subset; the hit share may differ from the screen's.

SMILES | Yeast UUG start | eIF4H inh | CSC inhib | PABP FP inh | Env fusion inh | Rce1 inhib | MT1-MMP act inh | MT1-MMP act inh RFP
COCCNC(=O)C1(C)CCN(C(=O)COc2ccc(Cl)cc2Cl)C1 (stereo not drawn) | 1.0 | x | x | x | -0.5 | x | 3.4 | 8.0
CC(=O)N1CC(C)Sc2ccc(S(=O)(=O)NCc3ccc(F)cc3)cc21 (stereo not drawn) | -10.4 | 0.4 | 3.4 | -6.5 | 9.0 | i | 2.3 | -13.2
O=C(O)CCC(=O)OCCCc1cc2ccccc2c(=O)o1 | -1.2 | x | 12.0 | x | -12.8 | x | 7.6 | 7.3
O=C(CCNC(=O)C1CCN(S(=O)(=O)c2ccc(F)cc2)CC1)Nc1ccccc1 | -28.8 | x | -5.0 | x | 0.6 | i | -3.4 | 2.2
CC(=O)Nc1ccc(NC(=O)CCS(=O)(=O)c2ccc3c(c2)oc(=O)n3C)cc1 | x | -6.6 | -10.1 | 3.8 | -4.5 | i | -3.0 | 1.1
CN(C)S(=O)(=O)c1ccc2c(c1)nc(CCC(=O)Nc1ccc(N3CCOCC3)cc1)n2C | x | -0.4 | -3.5 | -9.6 | -6.5 | i | -4.0 | -0.1
Cc1cc(C(=O)OCC(=O)c2cccc([N+](=O)[O-])c2)c2ccccc2n1 | x | -2.7 | -7.9 | -0.8 | x | i | 2.7 | 7.1
Cn1cc(/C=C2\SC(=S)N(NC(=O)c3cccc(Cl)c3)C2=O)c2ccccc21 | x | u | x | u | -5.6 | x | -177.3 | -8.4
Cc1ccc(CNC(=O)COC(=O)c2cnc(C)cn2)cc1 | x | -11.3 | 3.9 | 9.9 | 13.1 | i | x | x
COC(=O)c1cc(CN2C(=O)c3ccccc3C2=O)c(O)c([N+](=O)[O-])c1 | -27.5 | 1.9 | 0.4 | 10.0 | -0.5 | i | 5.2 | 3.2
Cc1cccc(C)c1OCCOCCN1CCN(C)CC1 | -0.1 | -6.3 | 43.6 | 8.0 | 13.8&-35.4 | i | 2.2&1.8 | -0.8&0.2
CCOC(=O)C1CCN(C(=O)CCCNC(=O)Cn2cnc3sc(C)c(C)c3c2=O)CC1 | 1.5 | 3.2 | 28.2 | 5.2 | 1.3 | i | -3.3 | -0.1
CCOC(=O)c1c(C)[nH]c(C)c1S(=O)(=O)NCCc1ccco1 | -18.3 | 6.8 | -12.9 | -8.1 | -17.3 | i | 1.5 | -0.6
CN(C)CCNC(C(=O)Nc1cccc(C(F)(F)F)c1)c1ccccc1 (stereo not drawn) | -9.3 | -4.6 | -6.3 | 13.8 | 16.9 | i | 3.1 | -0.1
COc1c2occc2c(OC)c2c(=O)cc(C)oc12 | -22.4 | -5.5 | -8.6 | 9.4 | x | i | 1.0 | 5.1
CCO/C=C1/C(=O)N(Cc2ccccc2)C(=O)c2ccccc21 | x | -3.1 | -10.8 | 12.4 | -9.4 | i | 2.1 | 6.9
CCCN1Cc2cccc(C(=O)NCc3ccccc3)c2C1=O | -5.9 | -5.9 | -11.2 | -5.5 | -20.4 | i | -1.5 | -2.6
Cc1csc(Sc2ccc(C(=O)OCC(=O)Nc3ccc(F)cc3[N+](=O)[O-])cc2[N+](=O)[O-])n1 | x | 2.5 | x | -17.0 | x | i | 0.4 | 1.6
CC(=O)Oc1ccc2nc(CN3C(=O)c4ccc([N+](=O)[O-])cc4C3=O)oc(=O)c2c1 | x | 1.1 | -26.1 | -0.1 | 21.7 | i | 2.6 | 2.6
CCc1sc(C(=O)Nc2ccc(OC)c(S(=O)(=O)N3CCOCC3)c2)cc1C | -10.8 | x | -14.1 | x | 16.7 | x | 5.8 | -11.6
COc1ccc(-c2ccc(=O)n(Cc3c(F)cccc3Cl)n2)cc1 | -13.1 | -5.6 | 6.7 | -7.7 | -10.7 | i | -0.3 | 0.5
CCc1noc(C)c1C(=O)N1CCCC1 | x | -9.6 | -3.2 | 19.0 | x | i | 2.3 | 3.4
CC(=O)Nc1ccc(S(=O)(=O)NC(CC(=O)NCCc2ccccc2)C(C)C)cc1 (stereo not drawn) | -18.5 | -8.6 | x | 5.1 | -9.7 | i | -6.0 | -0.9
CCOC(=O)N1CCN(c2c(NCCCN(CC)Cc3ccccc3)c(=O)c2=O)CC1 | 1.8 | -8.8 | -6.0 | 1.7 | -22.7 | i | 6.3 | -3.1
Cc1cc(Cn2ccnc2)c(C)c([N+](=O)[O-])c1Cn1ccnc1 | -9.6 | -3.6 | 17.0 | 2.5 | -4.5 | i | 6.9 | -4.5
CCC(c1nnnn1Cc1cccs1)N1CCN(C(=O)c2ccco2)CC1 (stereo not drawn) | x | -8.5 | -10.8 | -5.7 | -0.9 | i | -2.2 | -1.0
CCOC(=O)Cn1cc([N+](=O)[O-])c(OC)n1 | -4.2 | 1.4 | -8.1 | 10.4 | x | i | 1.1 | 3.7
O=C(CN1CCN(Cc2ccccc2)CC1)N1CCN(c2ccccc2)CC1 | x | -2.1 | 1.0 | -7.3 | -115.6 | i | 0.3 | 1.9
C=CCNC(=S)Nc1ccc(C)cc1[N+](=O)[O-] | 24.0 | 8.1 | 0.1 | 4.6 | -6.5 | i | 2.8 | 8.2
CCN(CC)S(=O)(=O)c1ccc(/C(O)=C2/C(=O)C(=O)N(CCOC)C2c2ccccc2)cc1 (stereo not drawn) | 3.2 | 5.7 | -7.6 | 2.4 | x | i | 2.7 | 1.2
CCOC(=O)Cc1nc2cc(Cl)ccc2o1 | x | 8.7 | -8.1 | -9.8 | 7.5 | i | 0.7 | 5.1
CC1CC(C)CN(CCCSc2ccccc2)C1 (stereo not drawn) | x | 0.4 | 7.6 | -5.6 | -11.4 | i | 2.3 | 7.6
O=C(Nc1ccccc1F)Nc1cccnc1Cl | -22.6 | x | -5.8 | x | -6.5 | i | 5.0 | -2.3
Cc1c(C(=O)O)cccc1[N+](=O)[O-] | -11.1 | x | 0.8 | x | x | x | -0.9 | 2.7
COC(=O)c1ccc(CSc2ccc3nnc(-c4cccc(F)c4)n3n2)o1 | -19.8 | 0.9 | -4.9 | -7.0 | 24.8 | i | -2.4 | -1.9
O=C(CN1C(=O)NC2(CCCCCC2)C1=O)Nc1ccc(OC(F)(F)F)cc1 | 1.6 | x | x | x | -99.8 | x | 9.4 | 5.9
CCC(NC(=O)Nc1cc(OC)c(OC)c(OC)c1)(C(F)(F)F)C(F)(F)F | -13.4 | 0.7 | -1.3 | -3.5 | -27.7 | i | -6.4 | -7.9
Cc1ccc2c(c1)N(CC(=O)N1CCCC(C)C1)C(=O)CO2 (stereo not drawn) | -10.8 | 3.4 | 1.5 | 18.7 | 8.3 | i | 0.7 | -1.5
O=C(CCN1N=C(c2ccccc2)CCC1=O)NC1CCCCC1 | -6.6 | x | x | x | 17.6 | x | 3.3 | 1.6
CC(NC(=O)c1ccc(CS(=O)(=O)Cc2ccccc2F)o1)c1ccc2c(c1)OCCO2 (stereo not drawn) | -14.7 | 1.5 | 0.9 | 3.5 | x | i | 3.2 | 7.1
O=C(COc1ccc(Br)cc1)Nc1ccc(C(=O)Nc2ccccc2C(=O)O)cc1 | -15.5 | -1.4 | 30.1 | 39.1 | 3.8 | i | 4.9 | 4.7
COc1cccc(CN(C)C(=O)c2ccc(NS(=O)(=O)c3ccc4[nH]c(=O)[nH]c4c3)cc2)c1OC | 28.3 | -9.9 | -2.8 | -0.5 | -5.1 | i | -3.3 | -0.7
CCn1cc(C(=O)NCCc2ccc(OC)c(OC)c2)c(=O)c2cc(S(=O)(=O)N3CCOCC3)ccc21 | -13.2 | -21.4 | -4.3 | 0.3 | -8.1 | i | -3.0 | 1.5
COc1ccccc1NS(=O)(=O)c1cc(NC(=O)c2ccco2)ccc1N1CCOCC1 | x | -11.8 | 9.6 | 1.3 | -87.2 | i | 1.5 | 0.9
CCc1nnc(NC(=O)c2nc(S(=O)(=O)Cc3ccc(C)cc3)ncc2Cl)s1 | -15.8 | -5.5 | x | 11.0 | -5.3 | i | -0.4 | 3.6
CCOC(=O)c1snc2c(=O)[nH]cnc12 | -17.6 | 8.4 | -1.8 | 6.2 | -26.0 | i | -2.7 | 5.0
CC(=O)Nc1nn(C)c2nc3ccc(C)cc3cc12 | -10.0 | 0.5 | -14.0 | 4.8 | -18.6 | i | 6.6 | 6.7
Cc1ccn2c(CNC(C)CCn3cccn3)c(C(=O)N3CCCCCC3)nc2c1 (stereo not drawn) | x | 8.2 | -25.1 | 7.2 | -18.1 | i | -2.1 | 1.1
CCN(CC)S(=O)(=O)c1cccc(C(=O)NCCCN2CCOCC2)c1 | -10.5 | -5.8 | -2.7 | 7.8 | 17.3 | i | 3.1 | 1.8
CCN(C[C@H]1N[C@@](CC)(C(=O)OC)[C@H]2C(=O)N(C)C(=O)[C@@H]12)C(=O)c1ccc(C(C)(C)C)cc1 | -3.1 | x | x | x | -14.7 | x | 5.0 | 8.1
COc1ccc(OC)c(/C=N/NC(=O)c2[nH]nc3c2CCc2ccccc2-3)c1 | x | -3.5 | -3.8 | -7.9 | -187.3 | i | -1.4 | -1.9
CNc1cncc(-c2ccc(S(C)(=O)=O)cc2)n1 | -20.7 | x | x | x | 4.9 | x | -2.9 | 0.3
CCOC(=O)N1CCN(C(=O)COC(=O)c2ccc(Cl)nc2)CC1 | x | x | -1.2 | x | -5.1 | x | 4.7 | 2.8
O=C(CCCN1C(=O)/C(=C/c2cccs2)SC1=S)NNC(=O)c1ccccc1O | -18.9 | -6.4 | -10.0 | -7.7 | -12.1 | i | 7.3 | 6.0
CCC(C)c1ccccc1OCCCN(C)Cc1ccccc1 (stereo not drawn) | 4.6 | 7.3 | x | -1.7 | 14.5 | i | 2.2 | 1.2
CCn1ncc(Br)c1C(=O)Nc1ccn(C23CC4CC(CC(C4)C2)C3)n1 | 2.2 | -4.2 | 64.3 | -3.7 | 3.5 | i | -0.5 | -1.1
CC1=C(C(=O)OCc2ccccc2)C(c2ccc(Br)cc2)NC(=O)N1CCCC(=O)O (stereo not drawn) | x | 2.7 | -7.1 | 1.4 | 4.2 | i | x | x
CCOC(=O)C1=C(C)N(C)C(C)=C(C(=O)OCC)C1c1ccc(Cl)cc1 | x | 6.5 | 33.9 | 20.8 | 7.0 | i | 9.4 | 0.6
Cc1[nH]c2ccccc2c1CC(=O)O | -6.6 | 7.9 | -19.5 | 7.3 | -66.8 | i | 1.4 | 4.0
COc1ccccc1N1CCN(CCCC(=O)c2ccc(F)cc2)CC1 | -12.6 | -7.2 | 1.9 | 2.8 | -10.8 | i | 2.8 | -3.6
Cc1ccc2cc(C(c3nnnn3C3CCCC3)N3CCOCC3)c(=O)[nH]c2c1C (stereo not drawn) | 15.7 | -3.9 | -10.5 | -4.1 | -68.1 | i | -3.1 | 1.1
CCOc1ccc(S(=O)(=O)NCCC(=O)NCc2ccc(OC)c(OC)c2)cc1 | -2.9 | x | -8.6 | x | -8.3 | x | -5.7 | 1.7
Clc1cccc(Cc2c(-c3ccccc3)nc3ccc(Cl)cn23)c1 | -25.5 | x | x | x | 0.1 | x | -1.1 | 0.2

Bioassay records: PubChem BioAssay, several laboratories
